Source: PubChem (Broad Institute)
DUX4 inh = inhibitors of DUX4-driven ZSCAN4 reporter expression, primary screen, 293T cells, Gaussia and Italica luciferase; 293T-iDUX4 ZSCAN4-Gaussia luciferase reporter, 24 h; hits give low values; activity change, negative = inhibition, % (concentration not given with the values); 37,000 tested, 0.8% active;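 active = -10% or lower and over 25 points stronger than a control reporter; inconclusive = -10% or lower with a smaller gap; inactive = above -10%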;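 note: 0% = median of neutral control wells and -100% = median of positive control wells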
DUX4 inh difference = also measured in DUX4 inh; calls as there; Gaussia minus Italica difference, %; measured here: selective DUX4 reporter inhibition;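 worked out from the two reporters; negative = selective loss of the DUX4 reporter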
DUX4 inh control = also measured in DUX4 inh; calls as there; activity change, negative = inhibition, %; measured here: Italica tet-on control reporter;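 0 = neutral control and -100 = positive control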
* = called active by the depositor; ? = inconclusive; / = no result given. A portion of the library (hit frequency here may not be typical).

DUX4 inh | structure | DUX4 inh difference | DUX4 inh control
2 | CC(C)CC#Cc1ccc([C@H]2[C@H]3CN(C(=O)Cc4cccnc4)CC(=O)N3[C@H]2CO)cc1 | 5 | -3.3
12 | O=C(C[C@H]1C=C[C@@H](NC(=O)c2cccc(F)c2)[C@H](CO)O1)Nc1nccs1 | 13 | -1.3
14 | CN(C)C(=O)c1ccc(-c2ccc([C@H]3[C@H](CO)N4CCCCN(CC5CC5)C[C@@H]34)cc2)cc1 | 0 | 15
-1 | CCC(=O)N1C[C@H]2[C@@H](c3ccccc31)[C@H](CO)N2C(=O)CC1CC1 | -1 | 0.4
5 | CCC(=O)N1Cc2cc(C(=O)N3CCCCC3)nc(-c3cccc(-c4cccnc4)c3)c2[C@H]1CCO | 0 | 4.8
9 | COc1ccc2c3c(n(C)c2c1)[C@@H](CO)N(CC1CC1)CC31CN(Cc2ccc(F)cc2)C1 | 18 | -9.1
1 | C/C=C/c1ccc([C@H]2[C@@H](CO)N3CCCCN(C(=O)Nc4ccc(F)cc4)C[C@H]23)cc1 | 11 | -11
2 | COCC(=O)Nc1ccc2c(c1)C(=O)N(C)[C@H]1CC[C@H](CC(=O)NCc3ccc(OC)cc3)O[C@H]1CO2 | 4 | -2.0
-6 | COCCNC(=O)C[C@@H]1C[C@@H]2c3cc(NC(=O)CN(C)C)ccc3O[C@@H]2[C@@H](CO)O1 | -7 | 1.2
2 | C[C@H]1CN([C@@H](C)CO)C(=O)c2ccccc2-c2ccccc2CO[C@@H]1CN(C)S(=O)(=O)c1ccccc1F | -4 | 6.1
0 | Cc1noc(C)c1NC(=O)N(C)C[C@@H]1OCCCC[C@H](C)Oc2ccc(NS(=O)(=O)c3cn(C)cn3)cc2C(=O)N([C@@H](C)CO)C[C@H]1C | -3 | 3.2
3 | COC(=O)C[C@@H]1CC[C@H]2[C@@H](COC[C@H](O)CN2S(=O)(=O)c2ccccc2OC)O1 | -9 | 12
9 | O=C(NCCN1CCCCC1)[C@H]1N[C@H]2c3ccc(-c4ccc(F)cc4)c(=O)n3C[C@H]2[C@@H]1CO | 7 | 1.6
14 | CC(C)CC#Cc1ccc([C@@H]2[C@@H](CO)N3C(=O)CN(S(C)(=O)=O)C[C@H]23)cc1 | 12 | 1.5
-1 | CCNC(=O)Nc1ccc2c(c1)C(=O)N(C)[C@H]1CC[C@@H](CC(=O)NCc3ccccc3F)O[C@@H]1CO2 | -4 | 2.1
3 | CN(C)CC(=O)N1C[C@@H]2N[C@H](C1)C2c1ccc(C2=CCCCC2)cc1 (some centres not stated) | -13 | 16
0 | C/C=C/c1ccc2c(c1)O[C@@H](CN(C)Cc1ccc(C(=O)O)cc1)[C@H](C)CN([C@H](C)CO)S2(=O)=O | -3 | 2.4
-1 | COCC#Cc1cnc2c(c1)C(=O)N([C@H](C)CO)C[C@H](C)[C@H](CN(C)Cc1ccc(-c3ccccc3)cc1)O2 | 0 | -1.6
2 | CN1C(=O)c2cc(NC(=O)Cc3ccccc3)ccc2OC[C@H]2O[C@H](CC(=O)NC3CCC3)CC[C@@H]21 | -2 | 3.8
6 | CN(C)CC#Cc1ccc([C@H]2[C@@H](CO)N3C(=O)CN(C(=O)c4ccc(F)cc4)C[C@H]23)cc1 | -1 | 7.3
1 | CO[C@H]1CN(C)C(=O)c2cc(NS(=O)(=O)c3cn(C)cn3)ccc2OC[C@H](C)N(CCC(F)(F)F)C[C@H]1C | -1 | 1.4
7 | CS(=O)(=O)N1[C@@H]2Cn3c(ccc(C4=CCCCC4)c3=O)[C@H]1[C@@H](C(=O)N1CCOCC1)[C@@H]2CO | 8 | -0.8
15 | O=C(C[C@@H]1CC[C@H]2[C@@H](COC[C@@H](O)CN2S(=O)(=O)c2cccc(F)c2)O1)Nc1ccccc1 | 7 | 7.8
11 | O=C(NCCCN1CCOCC1)[C@H]1[C@H](CO)[C@H]2Cn3c(cccc3=O)[C@@H]1N2C(=O)C1CCCCC1 | -2 | 13
-4 | COc1ccc(NC(=O)N2C[C@@H]3N[C@H](C2)C3c2ccc(-c3cccc(F)c3)cc2)cc1 (some centres not stated) | 1 | -4.6
0 | CC(C)(O)C#Cc1cccc(-c2nc(C(=O)N[C@@H]3CCN(Cc4ccccc4)C3)cc3c2[C@H](CCO)N(S(=O)C(C)(C)C)C3)c1 (some centres not stated) | -3 | 2.5
3 | COc1ccc2c3c([nH]c2c1)[C@H](CO)N(C(=O)Cc1ccccc1)CC31CN(C(=O)Nc2ccccc2F)C1 | -5 | 8.2
-1 | COCc1cn(CC[C@@H]2CC[C@@H](NC(=O)Nc3c(C)noc3C)[C@H](CO)O2)nn1 | -1 | 0.3
8 | COCC#Cc1ccc([C@@H]2[C@H]3CN(C(=O)c4ccncc4)CC(=O)N3[C@H]2CO)cc1 | 0 | 7.8
7 | CCCC(=O)Nc1ccc2c(c1)C(=O)N(C)[C@@H]1CC[C@@H](CC(=O)NC3CCCC3)O[C@H]1CO2 | 2 | 4.9
1 | O=C(C[C@H]1C[C@H]2c3cc(NC(=O)NC4CCCC4)ccc3O[C@H]2[C@H](CO)O1)NCc1ccccc1F | -4 | 5.2
6 | C[C@@H]1CN([C@H](C)CO)C(=O)c2cc(C#CCc3ccccc3)cnc2O[C@@H]1CN(C)CC1CCOCC1 | 2 | 3.7
-6 | Cc1cccc(S(=O)(=O)N2CC[C@@H]3[C@H](CO)N(C)c4ccc(-c5ccccc5F)cc4[C@@H]32)c1 | 7 | -13
1 | Cc1ccccc1-c1cnc2c(c1)C(=O)N([C@@H](C)CO)C[C@@H](C)[C@H](CN(C)Cc1ccccc1F)O2 | -2 | 3.1
11 | CCN1[C@@H]2Cn3c(ccc(-c4ccccc4OC)c3=O)[C@H]1[C@@H](C(=O)N[C@H](C)c1ccccc1)[C@@H]2CO | 8 | 3.0
-3 | CN(C[C@H]1[C@H](c2ccccc2)[C@@H](CO)N1C(=O)C1CC1)C(=O)c1ccccn1 | -1 | -1.9
0 | CC(=O)N1[C@@H]2Cn3c(ccc(-c4cccnc4)c3=O)[C@H]1[C@@H](C(=O)N1CCc3ccccc3C1)[C@@H]2CO | -7 | 7.0
10 | COc1ccc2c3c([nH]c2c1)[C@H](CO)N(C(=O)C1CC1)CC31CN(C)C1 | 15 | -5.7
-1 | COc1cccc(S(=O)(=O)N(C)C[C@@H]2Oc3cc(Br)ccc3S(=O)(=O)N([C@@H](C)CO)C[C@@H]2C)c1 | -2 | 0.7
-1 | C[C@@H]1CN([C@H](C)CO)C(=O)c2cc(NC(=O)C3CCCCC3)ccc2O[C@@H](C)CCCCO[C@@H]1CN(C)C(=O)Nc1ccc2c(c1)OCO2 | -2 | 0.7
6 | CCC(=O)N1C[C@@H](O)COC[C@H]2O[C@@H](CC(=O)NCc3ccccc3Cl)CC[C@@H]21 | 2 | 4.0
-2 | C[C@H]1CN([C@@H](C)CO)C(=O)c2cc(N(C)C)ccc2O[C@@H]1CN(C)S(=O)(=O)c1cn(C)cn1 | -5 | 2.7
4 | O=C(C[C@@H]1C[C@H]2c3cc(NS(=O)(=O)c4ccc(F)cc4)ccc3O[C@H]2[C@H](CO)O1)NCc1ccccn1 | 1 | 3.9
5 | CN(C)C(=O)C[C@@H]1C=C[C@@H](NS(=O)(=O)c2ccccc2)[C@@H](CO)O1 | 7 | -1.7
-1 | CCC(=O)N(C)C[C@H]1[C@H](c2ccc(-c3cccnc3)cc2)[C@@H](CO)N1C(C)=O | -4 | 3.1

Not a retest: an excerpt of the list.
DUX4 inh | structure | DUX4 inh difference | DUX4 inh control
1 | O=C(C[C@H]1C[C@H]2c3cc(NC(=O)NC4CCCC4)ccc3O[C@H]2[C@H](CO)O1)NCc1ccccc1F | -4 | 5.2
6 | C[C@@H]1CN([C@H](C)CO)C(=O)c2cc(C#CCc3ccccc3)cnc2O[C@@H]1CN(C)CC1CCOCC1 | 2 | 3.7
-6 | Cc1cccc(S(=O)(=O)N2CC[C@@H]3[C@H](CO)N(C)c4ccc(-c5ccccc5F)cc4[C@@H]32)c1 | 7 | -13
1 | Cc1ccccc1-c1cnc2c(c1)C(=O)N([C@@H](C)CO)C[C@@H](C)[C@H](CN(C)Cc1ccccc1F)O2 | -2 | 3.1

An excerpt from above in order of count of non-hydrogen atoms, high to low.
DUX4 inh | structure | DUX4 inh difference | DUX4 inh control
6 | C[C@@H]1CN([C@H](C)CO)C(=O)c2cc(C#CCc3ccccc3)cnc2O[C@@H]1CN(C)CC1CCOCC1 | 2 | 3.7
-3 | CN(C[C@H]1[C@H](c2ccccc2)[C@@H](CO)N1C(=O)C1CC1)C(=O)c1ccccn1 | -1 | -1.9
10 | COc1ccc2c3c([nH]c2c1)[C@H](CO)N(C(=O)C1CC1)CC31CN(C)C1 | 15 | -5.7

(cont.)
DUX4 inh | structure | DUX4 inh difference | DUX4 inh control
-5 | O=C(NC[C@H]1[C@@H](c2ccccc2)[C@H](CO)N1C(=O)Cc1cccnc1)C1CCC1 | -10 | 5.0
-57* | OC[C@@H]1[C@H](c2ccc(C#Cc3cccnc3)cc2)[C@H]2CN(Cc3ccccc3F)CCCCN12 | -38* | -19*
-3 | C[C@H]1CN([C@@H](C)CO)C(=O)CCCn2nncc2CO[C@H]1CN(C)C(=O)Nc1ccc(-c2cccs2)cc1 | 1 | -4.5
8 | COc1ccc(S(=O)(=O)N2CCCCN3[C@H](C2)[C@H](c2ccc(C#CC(C)C)cc2)[C@@H]3CO)cc1 | 13 | -4.7
0 | COC(=O)C[C@H]1CC[C@@H]2[C@@H](COc3ccc(NC(=O)c4cccc(Cl)c4)cc3C(=O)N2C)O1 | 1 | -0.8
-3 | Cc1ccccc1CN(C)C[C@H]1OCc2cnnn2CCCC(=O)N([C@H](C)CO)C[C@@H]1C | -4 | 0.3
2 | O=C(Cc1ccncc1)NCC[C@H]1CC[C@H](NS(=O)(=O)c2ccccc2Cl)[C@@H](CO)O1 | 4 | -1.6
3 | N#C[C@H]1[C@@H](c2ccc(C#CC3CCCCC3)cc2)[C@H](CO)N1S(=O)(=O)c1ccccc1 | -3 | 5.1
10 | CCS(=O)(=O)N1CCCCN2[C@H](CO)[C@@H](c3ccc(-c4ccccc4C)cc3)[C@@H]2C1 | -1 | 10
9 | CN(C)CC#Cc1ccc([C@@H]2[C@H]3CN(C(=O)NC4CCCC4)CCCCN3[C@H]2CO)cc1 | -4 | 13
7 | CN1[C@H](C(=O)NCc2ccncc2)[C@@H](CO)[C@@H]2Cn3c(ccc(-c4ccccc4F)c3=O)[C@@H]21 | 4 | 2.5
1 | C[C@@H]1CCCCO[C@H](CN(C)CC2CCCCC2)[C@@H](C)CN([C@H](C)CO)C(=O)c2cc(NC(=O)CCC(F)(F)F)ccc2O1 | 0 | 0.7
4 | Cc1cc(C(=O)Nc2cccc3c2O[C@@H](CN(C)C)[C@@H](C)CN([C@H](C)CO)C3=O)n(C)n1 | 0 | 3.9
? | CO[C@@H]1CN(C)C(=O)c2cc(NC(=O)c3ccc(Oc4ccccc4)cc3)ccc2OC[C@@H](C)NC[C@@H]1C | / | /
13 | COc1ccc2c3c([nH]c2c1)[C@H](CO)N(C(C)=O)CC31CN(S(=O)(=O)c2ccccc2)C1 | 11 | 1.1
-7 | CN(C)C(=O)C[C@@H]1C[C@H]2c3cc(NC(=O)Nc4ccccc4F)ccc3O[C@H]2[C@H](CO)O1 | -18 | 11
7 | COCC(=O)Nc1ccc2c(c1)[C@H]1C[C@@H](CC(=O)NCc3cccnc3)O[C@H](CO)[C@H]1O2 | 8 | -1.1
-3 | O=C(C[C@H]1C[C@@H]2c3cc(NC(=O)c4ccc5c(c4)OCO5)ccc3O[C@@H]2[C@H](CO)O1)NC1CCCCC1 | 2 | -5.3
8 | COc1ccc(C#Cc2ccc3c(c2)[C@@H]2[C@@H](CCN2C(=O)C2CCOCC2)[C@@H](CO)N3)cc1 | -4 | 11
0 | COc1ccc(NC(=O)N(C)C[C@H]2Oc3c(NC(=O)c4ccncc4)cccc3C(=O)N([C@H](C)CO)C[C@@H]2C)cc1 | -4 | 3.7
? | C[C@H]1CN([C@@H](C)CO)C(=O)c2c(c3ccccc3n2C)-c2ccccc2CO[C@H]1CN(C)C(=O)Cc1ccccc1 | / | /
5 | COc1ccc2c3c(n(C)c2c1)[C@@H](CO)NCC31CN(C(C)=O)C1 | -4 | 8.4
? | N#Cc1ccc(-c2ccc(C3[C@@H]4CN(S(=O)(=O)c5ccccc5F)C[C@H]3N4)cc2)cc1 (some centres not stated) | / | /
3 | COc1ccc(NC(=O)Nc2ccc3c(c2)C(=O)N([C@H](C)CO)C[C@@H](C)[C@H](CN(C)S(=O)(=O)c2cccs2)OCCCC[C@H](C)O3)cc1 | 3 | 0.2
0 | Cc1ccc(S(=O)(=O)N2CC[C@@H]3[C@H]2c2cc(-c4ccccc4F)ccc2N(C)[C@H]3CO)cc1 | -8 | 8.0
1 | COc1cccc(C#Cc2cnc3c(c2)C(=O)N([C@@H](C)CO)C[C@H](C)[C@@H](CN(C)C(=O)C2CCCCC2)O3)c1 | -2 | 2.2
7 | COc1ccccc1NC(=O)N1CC(=O)N2[C@H](CO)[C@@H](c3ccc(C#CCC(C)C)cc3)[C@@H]2C1 | 7 | -0.3
-5 | CCCNC(=O)N1CC2(CCN(C(=O)Nc3cccc(F)c3)CC2)c2c(n(C)c3cc(OC)ccc23)[C@H]1CO | 0 | -5.6
3 | C[C@@H]1CN([C@@H](C)CO)C(=O)c2cc(NC(=O)c3ccncc3)ccc2O[C@@H](C)CCCCO[C@H]1CN(C)S(=O)(=O)c1cn(C)cn1 | 3 | -0.5
2 | C[C@H]1CN([C@@H](C)CO)C(=O)CCCn2cc(nn2)CO[C@@H]1CN(C)C(=O)Nc1ccnc(N2CCOCC2)c1 | 2 | -0.1
-3 | N#C[C@H]1[C@@H](c2ccc(C3=CCCC3)cc2)[C@@H](CO)N1S(=O)(=O)c1ccccc1 | -6 | 3.1
